Screening results (PubChem)
NPYLR7 ag: mosquito NPYLR7 agonism; AID 1259423; activation, % at 10 µM; actives 0.15% (n = 270,000); HEK293T NPYLR7/Galpha15, GCaMP6s calcium fluorescence; in the data active = activation above about 40%;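 note: 0% = vehicle and 100% = reference agonist at the receptor; some compounds past the cut are filed as inactive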
NPYLR7 ag max-min: second read-out of NPYLR7 ag, no call of its own (marks repeat the call); activation, %; measured here: Max-Min RFU normalised activation; some inactives read as strong as hits;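 span of the calcium signal over five minutes; 0% = vehicle and 100% = native peptide agonist; compound fluorescence can raise it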
Starred values were filed as active, the others as inactive; & = joins results of further samples. Some of the compounds tested; rates above refer to the full screens.

Structure | NPYLR7 ag | NPYLR7 ag max-min
COc1cc(OC)cc(N2CCN(C(=O)c3ccc(F)cc3)C(C)C2=O)c1 (stereo unspecified) | 15 | 6
CCN1CCC(Nc2ncnc3c2cnn3-c2ccccc2)CC1 | 13 | 6
COc1ccc(OC)c2sc(N(CCCN3CCOCC3)C(=O)C3=COCCO3)nc12 | 0 | -2
Cc1sc2ncnc(SCC(=O)c3ccc(F)cc3)c2c1C | -7 | -13
O=C(NCCn1ncc2c(N3CCCC3)ncnc21)C1COc2ccccc2O1 (stereo unspecified) | -2 | -4
COc1ccc(C(C)(C)C)cc1NC(=O)c1ccc(Cl)c(S(=O)(=O)N2CCOCC2)c1 | 4 | 2
CCOC(=O)c1sc(NC(=O)c2ccco2)nc1C | 5 | -2
C=C(C)COc1ccccc1C(=O)N1CCCC1c1nc(C(C)C)no1 (stereo unspecified) | 0 | 8
Nc1cccc(OCCOCCOc2cccc(N)c2)c1 | -4 | -5
COCCN1CC2=C(C1=O)C(c1cc(OC)c(OC)c(OC)c1)NC(=O)N2 (stereo unspecified) | 2 | 3

The results go on:
Structure | NPYLR7 ag | NPYLR7 ag max-min
O=C(Nc1cc(-c2ccccc2)nn1-c1ccccc1Cl)c1ccc(F)c(C(F)(F)F)c1 | 3 | 3
CN(C)CCN(C(=O)c1cc(Cl)c(Cl)n1C)c1ccccc1 | 4 | 2
Cc1nc(SCC(=O)N2CCNC2=O)c2c3c(sc2n1)CCC3 | 0 | 1
CN(Cc1nc(Cc2ccccc2F)no1)CC1CCCCO1 (stereo unspecified) | 2 | -4
CCC(C)Cn1c(C2CC(=O)N(c3cccc(OC)c3)C2)nc2ccccc21 (stereo unspecified) | 30 | 25
CCOC(=O)c1nc2ccccc2nc1N1CCN(C(=O)c2c(C)noc2C)CC1 | 22 | 19
Cc1ccc(-n2c(SCc3nc(C(=O)N4CCOCC4)cs3)nnc2-c2ccco2)cc1 | -12 | -16
O=C(NCCN1CCN(C(=O)CSCc2ccccc2)CC1)c1cccs1 | -1 | -3
Cc1nc(Cl)ccc1C(=O)Nc1cnn(CCN(C)C)c1 | -1 | -2
CCc1nc(N2CCN(c3ccc(F)cc3)CC2)c2c3c(sc2n1)CCCC3 | -2 | 4

The results go on.
Structure | NPYLR7 ag | NPYLR7 ag max-min
COc1ccc(OC)c(C2CC(c3ccc(F)cc3)=NN2C(=O)CN2CCN(C(C)=O)CC2)c1 (stereo unspecified) | -2 | 4
Cc1ccc(C)c(Cn2c(=O)c3c(nc4[nH]c(C)c(C)n43)n(C)c2=O)c1 | -6 | -9
COC(=O)c1ccc(Oc2c(C)oc3c4c(ccc3c2=O)OCN(C(C)C)C4)cc1 | 0 | 2
O=C(N/N=C\c1c(O)ccc2ccccc12)c1ccc(=O)[nH]n1 | 1 | 2
CCCCc1ccc(-c2nc(C=Nc3ccc(C(C)=O)cc3)c(O)o2)cc1 | -3 | -7
CCOC(=O)C(=O)N(C)c1c(CC)nc2c(OCc3ccccc3)cccn12 | 1 | 8
CCOC(=O)Cn1c(SCCOc2ccccc2)nc2ccccc21 | -3 | 2
CC1Cc2cc(-c3cc(CNC(=O)CSc4ncccn4)no3)ccc2O1 (stereo unspecified) | -3 | -4
CCOC(=O)N1CCN(C(=O)CC2(c3ccccc3)CC(=O)N(CC3CCCCC3)C2=O)CC1 (stereo unspecified) | 34 | 13
O=C(NCCn1ncccc1=O)c1ccc(F)cc1F | 0 | -3

(next part)
Structure | NPYLR7 ag | NPYLR7 ag max-min
Cc1cc(C)cc(CSc2nnc(NC(=O)c3ccc(Cl)cc3Cl)s2)c1 | -4 | 8
Cc1cccc(Nc2ncccc2C(=O)NCCCN2CCCC2=O)c1C | 12 | 6
Cc1cc(C)n(CC(=O)N2CCOC(c3ccc(Cl)cc3)C2)c(=O)n1 (stereo unspecified) | 7 | 5
CCC(NC(=O)c1oc2c(c1C)C(=O)CCC2)c1cnn(CC)c1 (stereo unspecified) | 4 | 0
Cc1nc(SCC(=O)NCCN2C(=O)CSC2=O)c2c3c(sc2n1)CCC3 | -2 | -3
CC(=O)c1ccc(N2CCN(Cn3ncn(-c4ccccc4C)c3=S)CC2)c(F)c1 | 11 | 16
Cc1nc(CN)cc(N(C)Cc2nonc2C)n1 | 14 | 13
O=C(NC1CC1)c1cc(-c2ccccc2F)n2nc(-c3ccccc3)cc2n1 | 20 | 25
CC(C)n1cc(C2c3[nH]c4ccccc4c3CCN2Cc2cnc(N3CCCC3)s2)cn1 (stereo unspecified) | 12&-12 | 4&-15
O=S(=O)(c1ccc2c(c1)OCCO2)N1CCN(Cc2ccc3c(c2)OCO3)CC1 | 11 | 8

New compounds follow
Structure | NPYLR7 ag | NPYLR7 ag max-min
CC1=NC2(O)c3ccccc3C(=O)C2(O)C1C#N (stereo unspecified) | 4&0 | 4&3
CNC(=S)NN=Cc1cc(OC)c(OC)cc1OC | 2 | -1
COCCNC(=O)c1c(NC(=O)c2cc(OC)c(OC)c(OC)c2)sc2c1CCCC2 | 0 | -2
Cc1cc(C)cc(-c2ccc(-n3cncc3C(=O)N3CCC3)cc2)c1 | -5 | 5
C=CC[C@@H]1CC=C[C@@H](C)N1C(=O)Cn1ccc(=O)c2ccccc21 | 20 | 10
O=c1oc2ccc3ccccc3c2cc1-c1csc(Nc2ccc(F)cc2)n1 | 12 | 6
COc1ccc(Cl)c2sc(N(CCN(C)C)C(C)=O)nc12 | 8 | 5
CCOC(=O)c1c(NC(=O)CN2CC(C)OC(C)C2)sc2c1CCC(C)C2 (stereo unspecified) | -6 | -11
CCCCCCCCc1nc(=S)[nH][nH]1 | 7 | 14
Cc1cc2cccc(C(=O)N3CCN4CCN(C)C(=O)C4C3)c2o1 (stereo unspecified) | 29 | 11

The list continues:
Structure | NPYLR7 ag | NPYLR7 ag max-min
COc1cc2c(cc1OC)C(c1cccc(C(F)(F)F)c1)N(C(=O)c1ccc(F)cc1)CC2 (stereo unspecified) | 18 | 12
CC1Cc2cc(-c3cc(CC(=O)NCCC4=CCCCC4)no3)ccc2O1 (stereo unspecified) | -1 | 1
O=C1NC(=S)S/C1=C\c1ccc(OCCOc2ccc(C3CCCCC3)cc2)cc1 | 0 | 9
COc1ccc(C(=O)N2C(C(=O)NCc3ccccn3)COC23CCN(C(=O)c2ccccc2Cl)CC3)cc1 (stereo unspecified) | 7 | 21
COc1cc(NC(=O)N(CC(=O)Nc2cc(C(C)(C)C)nn2-c2ccccc2C)C(C)C)cc(OC)c1 | -5 | 4
Cc1cc(C(=O)Nc2nnc(-c3cc(C)n(C)n3)o2)nn1C | -11 | -17
CN(C)CC1(O)CCCN(C(=O)c2cnc(N3CCOCC3)nc2)C1 (stereo unspecified) | -2 | -7
CCN1CCN(CC(N)=O)C(=O)C1=O | -1 | 2
Cn1nnnc1SCC1=C(C(=O)O)N2C(=O)C(NC(=O)C(OC=O)c3ccccc3)C2SC1 (stereo unspecified) | -2&39 | -6&34
c1cncc(NCCNC2CCSCC2)c1 | 4 | 2

Next results:
Structure | NPYLR7 ag | NPYLR7 ag max-min
Cc1[nH]n(-c2nc3ccccc3s2)c(=O)c1C=NC1CCN(Cc2ccccc2)CC1 | 2 | 2
COc1ccc(C(C)=O)cc1CC(=O)N(C)C(C)c1ccc(F)c(F)c1 (stereo unspecified) | -2 | -1
O=C(NCc1ccccn1)C1CNCCN1C(=O)c1cnc2ccccc2c1 (stereo unspecified) | 7 | 5
CC(NC(=O)CSc1ncc(-c2ccc(Cl)cc2)o1)C1CC1 (stereo unspecified) | 3 | 1
O=C(Nc1cccc(OCCn2cccn2)c1)N1CCc2ccccc2C1 | 6 | 2
CCOC(=O)CSc1nnc(N2CCN(c3ccc(F)cc3)CC2)s1 | 3 | 10
Cc1cc(=O)oc2cc(OCC(=O)NC3CCCCC3)ccc12 | -7 | 7
COc1cc2c(cc1OC)C(c1cccs1)N(Cc1cc(=O)n3cc(C)ccc3n1)CC2 (stereo unspecified) | 3 | 2
Cn1c(=NN=CC(Br)=Cc2ccccc2)sc2ccccc21 | 0 | -1
O=C(O)/C=C/c1cnc[nH]1 | 4 | -21

Next records:
Structure | NPYLR7 ag | NPYLR7 ag max-min
CC1(C(=O)NS(=O)(=O)c2ccc(F)cc2F)CCN1C(=O)Cc1ccccc1Cl (stereo unspecified) | 5 | 0
COc1ccc(-n2nnc3c(SCc4ccc(C)cc4)ncnc32)cc1 | -1 | 8
CCN1CCN(C(c2ccc(F)cc2)C2Sc3ncnn3C2=O)CC1 (stereo unspecified) | 3 | 2
O=C(c1ccc(CSc2nnc(Cc3ccccc3)n2-c2ccc(F)cc2)cc1)N1CCCC1 | 1 | 6
c1ccc2c(c1)CCC2Cc1nn2c(C3CC3)nnc2s1 (stereo unspecified) | 2 | -6
CNCC(=O)NCc1cccnc1N1CCN(c2ccccc2OC)CC1 | 22 | 14
CC1=NN(c2ccc(Cl)c(C(=O)O)c2)C(=O)/C1=C\c1ccc(-c2cc([N+](=O)[O-])ccc2Cl)o1 | 10 | 6
CCC(CO)Nc1ncnc(N)c1[N+](=O)[O-] (stereo unspecified) | 15 | 7
c1ccc(-c2[nH]cnc2-c2cccc(-n3cccn3)c2)cc1 | 7 | 5
CCOC(=O)c1c(C)[nH]c(C(=O)C(C)SCC(=O)OC)c1C (stereo unspecified) | 1 | -2

2 compounds picked at random from the list so far, as already listed:
Structure | NPYLR7 ag | NPYLR7 ag max-min
CCC(CO)Nc1ncnc(N)c1[N+](=O)[O-] (stereo unspecified) | 15 | 7
CNCC(=O)NCc1cccnc1N1CCN(c2ccccc2OC)CC1 | 22 | 14

Going on with the list.
Structure | NPYLR7 ag | NPYLR7 ag max-min
C=c1c(C)cc2c3c1=C(O)C(=O)N3C(C)(C)CC2C (stereo unspecified) | -4 | -7
Cn1cc(C=C2C(=O)Nc3cccnc32)c2ccccc21 | 20 | 9
O=C(c1ccc(CSc2nc3ccccc3s2)cc1)N1C2CCC1CC(Oc1cccc(C(F)(F)F)c1)C2 (stereo unspecified) | 7 | 2
COc1cn(CC(=O)Nc2ccc(C)cc2)c(CSc2nc(C)cs2)cc1=O | -10 | -15
CC(=O)c1ccc(NC(=O)CSc2nc(=O)n(N3CCN(C)CC3)c3c2CCCC3)cc1 | 5 | -2
CCn1c(C)cc(O)c(C(c2ccc(C)cc2)N2CCN(c3ccccn3)CC2)c1=O (stereo unspecified) | 9 | 4
Cc1cccc(-c2nnn3c2nc(NCCC(C)C)c2ccccc23)c1 | -8 | -15
Cc1cc(C(=O)N(CCCN(C)C)c2nc3c(C)cccc3s2)on1 | 2 | -1
CCC(C)NC(=O)c1cc(NC(=O)Nc2cccc(Br)c2)ccc1N1CCN(c2ccccc2OC)CC1 (stereo unspecified) | 4 | 3
Clc1ccc(-c2csc3ncnc(N4CCCCCC4)c23)cc1 | 0 | 5

4 consecutive records already listed:
Structure | NPYLR7 ag | NPYLR7 ag max-min
Cc1cccc(-c2nnn3c2nc(NCCC(C)C)c2ccccc23)c1 | -8 | -15
Cc1cc(C(=O)N(CCCN(C)C)c2nc3c(C)cccc3s2)on1 | 2 | -1
CCC(C)NC(=O)c1cc(NC(=O)Nc2cccc(Br)c2)ccc1N1CCN(c2ccccc2OC)CC1 (stereo unspecified) | 4 | 3
Clc1ccc(-c2csc3ncnc(N4CCCCCC4)c23)cc1 | 0 | 5

Other records.
Structure | NPYLR7 ag | NPYLR7 ag max-min
CC(=O)N1N=C(c2ccccc2)OC1C(=O)N[C@@H](CO)c1ccccc1 (stereo partly specified) | 7 | 0
COc1ccc(N2C(=O)C(c3c(C)[nH]n(-c4cccc(Cl)c4)c3=O)=C(N3CCOCC3)C2=O)c(OC)c1 | -14 | -8
CCOC(=O)C1(C)CCCCN1C(=O)c1ccc(OC)cc1OC (stereo unspecified) | 2 | 0
O=c1cccnn1CCNS(=O)(=O)c1ccc(Cl)s1 | 1 | 1
CCN(Cc1cnn(C)c1)C(=O)Cc1cc(F)ccc1C | -1 | -2
Cc1ccccc1-c1csc(C(C)(O)c2ccccc2)n1 (stereo unspecified) | 10 | 3
CC(=O)c1ccc(NC(=O)c2cnn3c(C(F)(F)F)cc(-c4ccc(Br)cc4)nc23)cc1 | -12 | -15
CC1=C(C(=O)OC(C)C)C(c2ccc(NC(=O)C(C)(C)CCl)cc2)NC(=S)N1C (stereo unspecified) | 2 | 4
CC1(C)C2CCC1(C)C(NC(=O)C1CCCN(c3ncccn3)C1)C2 (stereo unspecified) | -19 | -23
O=C(/C=C/c1cscn1)NC(Cc1ccccc1)C(=O)NC1CC1 (stereo unspecified) | 3 | 3

Next part.
Structure | NPYLR7 ag | NPYLR7 ag max-min
Cc1cccc(-n2c(SCC(=O)N3CCN(C(=O)c4ccc([N+](=O)[O-])cc4Cl)C(C)C3)nnc2-c2ccco2)c1 (stereo unspecified) | 18 | 22
CC(=O)c1c(C)nc(SSc2nc(C)c(C(C)=O)c(-c3ccccc3)c2C#N)c(C#N)c1-c1ccccc1 | 1 | -4
Cc1nc(CNC(=O)c2onc3ccccc23)nc2c1CCCC2 | -1 | 10
O=c1c2cc3c(=O)n(-c4ccccc4)ccc3nc2ccn1CCCN1CCOCC1 | 3 | 2
CC(C)c1noc2nc(C3CC3)cc(C(=O)N3CCN(C)C(=O)C3)c12 | -4 | -6
CCOc1ccc(C(=O)Nc2c(N)nc(SC)[nH]c2=O)cc1 | -5 | -5
COCCNC(=O)c1cn(C)cc2c(=O)n(-c3ccccc3)nc1-2 | 7 | 7
CCSc1nc(CC(=O)NCc2ccncc2)cs1 | 1 | -6
COC(=O)c1ccc(CSC(C)C(=O)NCc2ccc(F)cc2)cc1 (stereo unspecified) | -2 | -3
O=C(CSc1nncc(=O)[nH]1)Nc1ccccc1 | 1 | 1

(cont.)
Structure | NPYLR7 ag | NPYLR7 ag max-min
CCn1nc(-c2cccc(Br)c2)ccc1=O | 9 | 3
CCN(Cc1cccs1)C(=O)NC(C)c1cccc(Br)c1 (stereo unspecified) | 3 | 2
O=C(CCn1cccc1)N1CCOc2c(O)cc(-c3cccc(Cl)c3)cc2C1 | 11 | 3
Cc1nc(/C=C/C(=O)N(C)Cc2ccccc2C)cs1 | -8 | -10
COc1ccc(NC2CCCN(C(=O)Cc3sc(C)nc3C)C2)cc1OC (stereo unspecified) | 8 | -1
CC(C)c1nc(CNC(=O)c2ccc(N3CCN(C)CC3)nc2)no1 | 7 | 4
CCc1nc(C)sc1CNc1nc(CCN)nc2sc(C)c(C)c12 | 1 | 1
